total CFTR: total CFTR protein upregulators, primary screen, cell-based, HeLa F508del-CFTR, immunofluorescence, viability (AID 1224863); HeLa F508del-CFTR, immunofluorescence total CFTR, 24 h; by the record results were divided by relative cell number; some inactives read as strong as hits; calls, or highest fold increase where a dose series was run; hit rate 0.1% among 10,000; in the data nearly all actives have a first-pass fold increase above 1.5; a few of its hits are not listed in these tables;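 note: total CFTR protein by anti-CFTR immunofluorescence in fixed cells; first pass at 25 µM or 10 µg/mL by library and series up to twice that; 1 = untreated cells; first-pass hits also needed half or more of the cells alive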
total CFTR fold 25 µM: second read-out of total CFTR, no call of its own (marks repeat the call); fold increase; measured here: primary screen single dose 25 uM; library dosed in µM
total CFTR fold 10 ug/mL: further read-out of total CFTR, marked with its call; fold increase; measured here: primary screen 10 ug/mL
total CFTR viability 25 µM: further read-out of total CFTR, marked with its call; viability, %; measured here: primary viability 25 uM; library dosed in µM;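 0% = killed and 100% = untreated cells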
total CFTR viability 10 ug/mL: also measured in total CFTR; calls as there; viability, %; measured here: primary viability 10 ug/mL;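 0% = killed and 100% = untreated cells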
The depositor's hits bear a star; i = inactive; x = not tested or not shown; & = joins results of further samples.

SMILES	total CFTR	total CFTR fold 25 µM	total CFTR viability 25 µM	others
Nc1c2ccccc2nc2ccccc12	i	0.66	42.0
CC(C)NNC(=O)c1ccncc1	i	1.09&1.08	96.0&73.0
CN(C)c1ccc2nc3ccc(=[N+](C)C)cc-3sc2c1	i	0.89	74.0
O=C(NCCCN1CCOCC1)c1ccc(Cl)cc1	i	1.02	102.0
CCN(CCCCOC(=O)c1ccc(OC)c(OC)c1)C(C)Cc1ccc(OC)cc1 (stereo unspecified)	i	1.05	101.0
COc1ccc(-c2cc(C(F)F)nn2-c2ccc(S(N)(=O)=O)cc2)cc1F	i	1.02	90.0
O=C(O)c1cc(=O)c2ccccc2o1	i	1.06	84.0
CC(Cc1cccc(C(F)(F)F)c1)NCCOC(=O)c1ccccc1 (stereo unspecified)	i	0.99	84.0
CC[C@@H]1OC(=O)C[C@@H](O)[C@H](C)[C@@H](O[C@@H]2O[C@H](C)[C@@H](O)[C@H](N(C)C)[C@H]2O)[C@@H](CCN2C[C@H](C)C[C@H](C)C2)C[C@@H](C)C(=O)/C=C/C(C)=C\[C@@H]1CO[C@@H]1O[C@H](C)[C@@H](O)[C@@H](OC)[C@H]1OC	i	1.11	101.0
COC(=O)c1ccccc1O	i	1.09	99.0
CN[C@@H]1[C@H](O)[C@H](NC)[C@H]2O[C@@]3(O)C(=O)C[C@@H](C)O[C@H]3O[C@@H]2[C@H]1O	i	1.01&1.01&1.02	103.0&91.0&103.0
CCCOc1ccc(C(=O)OCCN(CC)CC)cc1N	i	1.14	106.0

An excerpt of the results above:
SMILES	total CFTR	total CFTR fold 25 µM	total CFTR viability 25 µM	others
Nc1c2ccccc2nc2ccccc12	i	0.66	42.0
CC(C)NNC(=O)c1ccncc1	i	1.09&1.08	96.0&73.0
CN(C)c1ccc2nc3ccc(=[N+](C)C)cc-3sc2c1	i	0.89	74.0

New compounds follow.
SMILES	total CFTR	total CFTR fold 25 µM	total CFTR viability 25 µM	others
Cc1scc2c1N(C(=O)CN1CCN(C)CC1)c1ccccc1NC2=O	i	1&1.07	92.0&106.0
CCCOc1ccc2nc(NC(=O)OC)[nH]c2c1	i	0.88&0.68	120.0&101.0
N=c1nc(N2CCCCC2)cc(N)n1O	i	1.1&0.97&1.05	109.0&111.0&102.0
CN(C)CC/C=C1/c2ccccc2COc2ccc(CC(=O)O)cc21	i	0.99&1.02	84.0&99.0
Cc1ccccc1OCC(O)CO (stereo unspecified)	i	0.88	88.0
COc1ccc(C(=O)c2ccccc2)c(O)c1	i	1.13	86.0
O=C(O)Cc1sc(-c2ccccc2)nc1-c1ccc(Cl)cc1	i	0.93	90.0
CC(=O)N[C@@H](Cc1ccccc1)C(=O)O	i	1.13	95.0
CCCCN(CCCC)CCCOC(=O)c1ccc(N)cc1	i	1.15	96.0
O=C1c2c(O)ccc(O)c2C(=O)c2c(NCCNCCO)ccc(NCCNCCO)c21	7.79	3.24&0.55&0.85	70.0&37.0&54.0
C=CCN1C[C@H](C(=O)N(CCCN(C)C)C(=O)NCC)C[C@@H]2c3cccc4[nH]cc(c34)C[C@H]21	i	0.94	94.0
CCn1cc(C(=O)O)c(=O)c2cc(F)c(N3CCNC(C)C3)c(F)c21 (stereo unspecified)	i	0.91&1.14&0.96	85.0&107.0&107.0

A draw from above in order of molar mass, rising.
SMILES	total CFTR	total CFTR fold 25 µM	total CFTR viability 25 µM	others
Cc1ccccc1OCC(O)CO (stereo unspecified)	i	0.88	88.0
CC(=O)N[C@@H](Cc1ccccc1)C(=O)O	i	1.13	95.0
CCCOc1ccc2nc(NC(=O)OC)[nH]c2c1	i	0.88&0.68	120.0&101.0
O=C(O)Cc1sc(-c2ccccc2)nc1-c1ccc(Cl)cc1	i	0.93	90.0
CCn1cc(C(=O)O)c(=O)c2cc(F)c(N3CCNC(C)C3)c(F)c21 (stereo unspecified)	i	0.91&1.14&0.96	85.0&107.0&107.0

Filtered by structure: the compounds so far containing four or more nitrogen atoms
SMILES	total CFTR	total CFTR fold 25 µM	total CFTR viability 25 µM	others
Cc1scc2c1N(C(=O)CN1CCN(C)CC1)c1ccccc1NC2=O	i	1&1.07	92.0&106.0
N=c1nc(N2CCCCC2)cc(N)n1O	i	1.1&0.97&1.05	109.0&111.0&102.0
O=C1c2c(O)ccc(O)c2C(=O)c2c(NCCNCCO)ccc(NCCNCCO)c21	7.79	3.24&0.55&0.85	70.0&37.0&54.0
C=CCN1C[C@H](C(=O)N(CCCN(C)C)C(=O)NCC)C[C@@H]2c3cccc4[nH]cc(c34)C[C@H]21	i	0.94	94.0

Other compounds:
SMILES	total CFTR	total CFTR fold 25 µM	total CFTR viability 25 µM	others
CC[C@]12CCCN3CCc4c(n(c5ccccc45)[C@](O)(C(=O)OC)C1)[C@@H]32	i	1.09	99.0
CC(C)(C)NCC(O)COc1cccc2c1C[C@H](O)[C@H](O)C2 (stereo partly specified)	i	1.1	91.0
O=C(Cn1nnc(-c2ccccc2)n1)N1c2ccccc2NC(=O)C12CCCC2	i	x	x	total CFTR fold 10 ug/mL=1.07;total CFTR viability 10 ug/mL=88.0
COC(=O)C1=C(C)NC(C)=C(C(=O)OCCN2CCN(C(c3ccccc3)c3ccccc3)CC2)C1c1cccc([N+](=O)[O-])c1 (stereo unspecified)	i	0.99&0.93&0.72&0.94	73.0&88.0&59.0&78.0
CC1(C)O[C@@H]2C[C@H]3[C@@H]4C[C@H](F)C5=CC(=O)C=C[C@]5(C)[C@@]4(F)[C@@H](O)C[C@]3(C)[C@]2(C(=O)CO)O1	i	1.08	94.0
COC(=O)N/N=C/c1c[n+]([O-])c2ccccc2[n+]1[O-]	i	0.84&0.91	85.0&92.0
CCCCOc1cc(C(=O)OCCN(CC)CC)ccc1N	i	1.14	87.0
Cc1cc(=O)oc2cc(O)ccc12	i	0.95	75.0
CCCCC(=O)O[C@]1(C(=O)CO)[C@@H](C)CC2C3CCC4=CC(=O)C=C[C@]4(C)[C@@]3(F)C(O)C[C@@]21C (stereo partly specified)	i	1.09	87.0
C#C[C@]1(O)CCC2C3CCC4=CC(=O)CC[C@@H]4C3CCC21CC (stereo partly specified)	i	0.96	88.0
CN(C)CCCSc1ccccc1NC(=O)/C=C/c1ccccc1	i	1.12	105.0

Bioassay records from PubChem.

This is a subset (hit frequency here may not be typical).
